# gsp antag – antagonists of gsp mutant (McCune-Albright syndrome); gsp-mutant cells, cAMP HTRF, 30 min; control for the full effect not named in the record; Potency, µM (doses to about 76.9 µM), without a hit: top-dose activity change, negative = inhibition, actives largely listed as inhibitors; 340,000 tested, 0.4% active; active = falling curve of any shape with a large fitted effect; inconclusive = falling curve, mostly with a smaller effect; inactive = flat or rising curve; cell line not stated here;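 note: intracellular cAMP measured with PDE inhibitor Ro 20-1724 present during compound exposure; potency is the fitted concentration of half-maximal effect; % is set by controls: 0 for no effect and ±100 for the full control effect; nearly all actives have a fitted effect of over 65% in size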
#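 Cells in G418 medium, seeded 16-24 h, 37C; buffer exchange to DPBS + 1 mM CaCl2, 0.5 mM MgCl2, 0.05% BSA; cpds in DMSO + […] (300 uM stock), 30 min 37C; HTRF cAMP detection.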
# Sfp PPTase inh – inhibitors of Bacillus subtilis Sfp phosphopantetheinyl transferase. Q9F4F7. Biochemical Sfp PPTase activity, qHTS. Potency, µM, for inactives: max response, negative = inhibition, actives largely listed as inhibitors. 310,000 tested, 3.5% active. AID 1490; active = well fitted inhibition curve with a large enough effect; inconclusive = small, poorly fitted or top-dose-only effect, or another doubt; inactive = no such curve, though single readings can be large or run the other way;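 note: the enzyme is Sfp with the accession as filed and its product quenches rhodamine fluorescence; potency is the fitted concentration of half-maximal effect; 0% = enzyme reaction without inhibitor and -100% = no enzyme wells; top concentration of the series not given in the record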
#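 Step 1, compound plus 15 nM Sfp-PPTase, 15 min, room temperature. Step 2, add rhodamine-CoA (5 uM) and BHQ-2-YbbR (12.5 uM). Step 3, read 525/598 nm fluorescence at 0 and 30 min.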
# gsp agonist – activates gsp, the McCune-Albright syndrome mutation. gsp mutant cells, cAMP HTRF, 30 min; control for the full effect not named in the record. Potency, µM (doses to about 76.9 µM), for the others: at the highest dose activation (cAMP increase), actives largely listed as activators. 340,000 tested, 0.13% active; active = well fitted activation curve with a large enough effect; inconclusive = small, poorly fitted or top-dose-only effect, or another doubt; inactive = no such curve, though single readings can be large or run the other way; cell line not stated here;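 note: phosphodiesterase inhibitor Ro 20-1724 added with compounds to block cAMP breakdown; potency is the fitted concentration of half-maximal effect; nearly all actives have a fitted effect of over 60% in size; about a fifth of the inactives were tested at one dose only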
#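 Cells stably selected in G418 were plated at 2000/well, grown 16-24 hr, then given compounds in DMSO with the PDE inhibitor […] (300 uM solution added) for 30 min at 37C; cAMP was read by HTRF.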
# Menin MLL FP FL – displaces fluorescein MLL peptide from human menin. FP activity change, % at 61.4 µM. Fluorescence polarization, fluorescein-MLL peptide displacement from menin. AID 1766. 290,000 tested, under 10 active; inconclusive = falling polarisation curve, or a change in total fluorescence; inactive = total fluorescence flat and polarisation flat or rising; no compound was filed as active; the % refers to the polarisation; negative = inhibition;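 note: % of control where 0% means no effect; inhibitors lower the polarisation; unlabelled MLL peptide was the positive control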
# D2 potentiator – positive allosteric modulators of human D2 dopamine receptor; P14416; DiscoveRx D2 beta-arrestin cells, luminescence, 90 min; 100% = 57 uM dopamine signal; potentiation, % (concentration not given with the values); 360,000 tested, 0.23% active; AID 624464; active = potentiation of 50% or more; inconclusive = 30% to 50%; inactive = 30% or less;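 note: compound concentration not given in the record; tested on top of an EC20 dose of dopamine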
# Target sequence (P14416 whole entry, looked up): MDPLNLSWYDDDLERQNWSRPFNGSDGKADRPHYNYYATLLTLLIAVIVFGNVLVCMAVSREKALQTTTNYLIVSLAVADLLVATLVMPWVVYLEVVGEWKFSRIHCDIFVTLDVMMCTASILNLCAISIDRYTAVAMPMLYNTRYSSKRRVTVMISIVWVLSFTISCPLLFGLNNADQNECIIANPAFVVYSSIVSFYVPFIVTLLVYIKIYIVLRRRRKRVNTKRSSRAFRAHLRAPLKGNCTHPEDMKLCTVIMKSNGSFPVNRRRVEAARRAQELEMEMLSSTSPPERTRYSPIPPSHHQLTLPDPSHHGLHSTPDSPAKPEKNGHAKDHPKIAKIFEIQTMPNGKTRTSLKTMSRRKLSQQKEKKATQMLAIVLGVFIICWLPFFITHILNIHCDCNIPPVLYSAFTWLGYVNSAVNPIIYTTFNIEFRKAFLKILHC
#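 D2 cells co-treated with compound plus 50 nM dopamine (EC20) for 90 min at 37 deg C to detect potentiation. Beta-arrestin recruitment was read as enzyme-fragment luminescence after 1 h at ambient temperature. Full response was set by 57 uM dopamine.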
# ClpP mod – qHTS Assay for Activators of ClpP; AID 651965, 2013; purified B. subtilis ClpP, FRET peptide cleavage, 20 min; Potency, µM (top dose mostly 57.5 µM), for inactives: top-dose activity change, negative = active; 340,000 tested, 1.9% active; active = well fitted falling curve with a large enough effect; inconclusive = small, poorly fitted or top-dose-only effect; inactive = no such curve, though single readings can be large or run the other way; note: potency is the fitted concentration of half-maximal effect; the source files actives as falling curves though it sought activators and does not explain the sign; nearly all actives have a fitted effect of over 65% in size; many hits overshoot -100%
# Target sequence (P80244 whole entry, looked up): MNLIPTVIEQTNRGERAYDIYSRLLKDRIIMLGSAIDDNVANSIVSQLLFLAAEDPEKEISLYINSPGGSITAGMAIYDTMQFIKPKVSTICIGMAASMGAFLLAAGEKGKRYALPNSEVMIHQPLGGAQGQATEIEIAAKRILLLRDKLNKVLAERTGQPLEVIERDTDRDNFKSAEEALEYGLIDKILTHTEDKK
#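 Buffer: 100 mM Tris/HCl pH8, 100 mM KCl, 0.05% low protease BSA, 2.5% glycerol, 0.01% Tween-20. ClpP 10 microg/mL final; 20 min RT; delta FRET normalized to ADEP and DMSO controls.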
# TRPV1 potentiator – enhances activation of the human vanilloid receptor TRPV1; Q8NER1; TRPV1-expressing cells, Fluo-8 calcium influx, capsaicin EC20 potentiation; host cell line not named in the record; control for the full effect not named in the record; potentiation, % at 8.33 µM; 320,000 tested, 0.02% active; active means potentiation above 80%; inconclusive means 30% to 80%; inactive means below 30%; note: 0% is about no effect
#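 TRPV1-expressing cells were cultured overnight at 35.5C and loaded with Fluo-8 calcium dye for 40 to 90 min at room temperature. After a 10 s baseline, compound was added and calcium influx was read kinetically for 3 min (ex 480/em 520 nm).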
# Starred values were filed as active, the others as inactive; ? = inconclusive; · = not tested or not shown; [ ] = dose if it differs, or a comment. Compounds as they come. About 5.1% of those tested had a hit in this group.
# The line under a structure holds: gsp antag, Sfp PPTase inh, gsp agonist, Menin MLL FP FL, D2 potentiator, ClpP mod, TRPV1 potentiator
- CCN(CC)c1ccc(/C=N/NC(=O)c2nnn(-c3nonc3N)c2C(C)C)c(O)c1
    -13%, 18%, 6%[15.4 µM], ·, -5, ·, -16
- CC1(c2nnc(Cc3ccccc3)o2)CC(c2ccc(C#N)cc2)=NO1 (stereo unspecified)
    -7%, ·, -7%, ·, 0, -1.7%, ·
- Cc1ccc(S(=O)(=O)NC(C)CCc2ccccc2)cc1 (stereo unspecified)
    -1%, -5%, 10%, 0.1, -15, 0.5%, 23
- Cc1ccc(/C=C/c2ccc3cccc(O)c3n2)s1
    -3%, 1%, ?, ?, -10, ·, 5
- O=C(CN(C(=O)c1csnn1)c1ccc2c(c1)OCCO2)NCc1ccccc1
    -12%, 0%, 5%[15.4 µM], 7.3, -9, -3.0%, -12
- O=C(Nc1ccccc1Oc1cccnc1)C1CCCN(Cc2ccccc2O)C1 (stereo unspecified)
    1%, 16%, 5%, -2.2, -6, ·, -16
- CC1CCCCC12NC(=O)N(CC(=O)Nc1cccnc1)C2=O (stereo unspecified)
    ·, ·, -70%[inhibitor], ·, -5, 1.9%, ·
- O=C(Nc1ccc(C(=O)O)cc1)/C(=C\c1ccccc1)NC(=O)c1ccco1
    6%, 25%, -16%, -11, -5, ·, ?
- O=C(O)Cn1cnc2c(=S)nc[nH]c21
    9%, 8.9µM*, -23%, 2.5, -3, 1.1%, 1
- COc1ccccc1N1CCN(C(=O)CSc2nnc(C)n2C2CC2)CC1
    11%, ·, -30%[inhibitor], ·, -5, -2.9%, ·
- CCCc1cc(=O)oc2cc(C)cc(OCC(=O)Nc3ccccn3)c12
    -3%, -2%, 26%, -5.5, -2, 3.7%, -2
- CC(=O)Nc1cccc(OCCCOc2ccc([N+](=O)[O-])cc2)c1
    -31%, 6%, -15%, -2.8, -3, 2.9%, -24
- CCc1cc(C(=O)c2ccc(OC)cc2)c(NC(=O)CN2CCCC2)s1
    -9%, -12%, 13%, 9.8, -7, -1.9%, -5
- CN(C(=O)c1ccc2c(c1)C(=O)N(CCC1=CCCCC1)C2=O)C1CCCCC1
    ?, ?, -28%, 0.6, -4, 0.5%, -7
- Cc1ccc(-c2csc3nc(CN(C)Cc4ccccc4)[nH]c(=O)c23)cc1
    -11%, -21%, -34%[inhibitor], ?, 6, ·, -4
- O=C(OCCNc1ncc(C(F)(F)F)cc1Cl)c1ccc(S(=O)(=O)N2CCOCC2)cc1
    -2%, 0%, -60%[inhibitor], -1.8, -10, 1.0%, -13
- CC(=O)Oc1ccc2c(c1)cc(C)n2C
    -7%, 13%, -13%, 2.4, 14, -4.8%, 30
- OC(CNCc1ccccc1)c1ccccc1 (stereo unspecified)
    6%, 9%, 0%[15.4 µM], -4.0, -6, -0.2%, 6
- COc1ccc(CC2(CO)CCN(S(=O)(=O)N(C)C)CC2)cc1
    2%, 25%, 15%, -0.9, -48, -1.6%, 15
- Cc1cccnc1CC(C)NC(=O)c1cc(COc2cncc(Cl)c2)on1 (stereo unspecified)
    -8%, 12%, 3%, ·, -10, 0.3%, 10
- COc1ccccc1N(C(=O)c1snc(C(N)=O)c1N)C(C(=O)NCc1ccccc1)c1ccc(C)o1 (stereo unspecified)
    -14%, 10%, 14%[15.4 µM], 5.3, -4, ·, 21
- Cc1ccc(S(=O)(=O)N/N=C\c2ccc([N+](=O)[O-])o2)cc1C
    -8%, 12%, 1%, ·, 12, -1.5%, 4
- Cc1nc(NCc2ccc(S(N)(=O)=O)cc2)c2c(C)c(C)sc2n1
    12%, -12%, ?, 2.1, -6, ·, 22
- CC(=O)OC[C@H]1O[C@@H](n2ccc(=O)[nH]c2=S)C(OC(C)=O)C1OC(C)=O (stereo partly specified)
    -2%, -25%, 3%, -2.1, -1, -2.7%, 8
- O=C1C2CC=CCC2C(=O)N1c1nccs1 (stereo unspecified)
    -5%, ·, -27%, ·, -11, 1.5%, ·
- CCn1c(SCc2ccc(Cl)cc2)nc2nc3c(cc2c1=O)CCCC3
    0%, ?, 5%[15.4 µM], -5.9, -19, -3.1%, 17
- CCOc1ccccc1NC(=O)CN(c1cc(C)cc(C)c1)S(=O)(=O)c1c(C)noc1C
    6%, 2%, 8%, 3.1, -8, 0.2%, ·
- CCOc1cccc2sc(N(CCN(C)C)C(=O)c3ccc4c(c3)OCCO4)nc12
    2%, -6%, 1%, ·, -46, 0.8%, 14
- COc1ccccc1/C=C/C(=O)OCC(=O)NNC(=O)c1ccccc1
    4%, 2%, -2%, 3.4, -8, ?, -4
- CC(=O)c1cccc(NC(=O)/C(=C\c2cccnc2)NC(=O)c2ccc(C)cc2)c1
    9%, 16%, 2%[15.4 µM], -0.8, -2, ·, ?
- CC1CCCCN1S(=O)(=O)c1ccc2c(c1)CCN2C(=O)C1CC1 (stereo unspecified)
    -19%, 5%, ?, ·, -6, -2.5%, -6
- CCC(C)C(=O)Nc1nc(C)c(-c2csc(Nc3cc(Cl)ccc3OC)n2)s1 (stereo unspecified)
    10%, ?, ·, 6.0, -10, -7.7%, 1
- CC(=O)Nc1ccc(S(=O)(=O)Nc2cccc(-c3nc4ccccc4o3)c2)cc1
    ?, 12%, 25%, 5.9, -7, ?, -10
- Cc1cc2nc(-c3ccc[nH]c3=O)[nH]c2cc1C
    3%, 7%, 86%, -6.0, -41, 4.1%, -4
- CCOC(=O)c1c(NC(=O)CSc2nc3ccccc3o2)sc(C)c1C
    -15%, 45µM*, ?, 9.4, -8, -1.4%, ?
- Cc1cc(C)cc(NC(=O)C2CCN(S(=O)(=O)c3ccc4c(c3)NC(=O)C(C)S4)CC2)c1 (stereo unspecified)
    ?, 4%, ?, 5.6, -31, -1.3%, 17
- Cc1cccc(NC(=O)c2nc(-c3ccccc3)n(-c3ccccc3)n2)c1C
    -3%, -10%, -3%, 3.2, -4, -1.3%, -10
- CC1(C)CC(=O)C(C(=O)/C=C/c2ccco2)C(=O)C1
    -4%, 4%, -15%, 7.2, -6, 0.3%, -15
- O=C(Nc1ccc2c(c1)OCCO2)C1CC1c1ccccc1 (stereo unspecified)
    -7%, -2%, -2%, 7.3, -11, 0.6%, -1
- CS(=O)(=O)N1CCN(c2ccccc2NC(=O)CSc2ccc(Cl)cc2)CC1
    -9%, -3%, -44%, 1.1, -1, -0.6%, 8
- CCN(Cc1cnn(C)c1)C(=O)c1cc(COc2cc(C)c(Cl)c(C)c2)on1
    ?, 0%, ?, -4.0, -11, 0.8%, 25
- COc1ccc(/C=N\Nc2ccc([N+](=O)[O-])cc2)c(C(=O)O)c1OC
    7%, 16%, 4%, ?, -15, 0.8%, ·
- COc1ccccc1NCC(=O)NNC(C)C(=O)Nc1cccc(Cl)c1 (stereo unspecified)
    6%, 16%, -39%[inhibitor], -0.7, -12, -1.6%, 4
- C[C@H](CO)N1C[C@H](C)[C@H](CN(C)S(=O)(=O)c2cccc(C#N)c2)OCc2cnnn2CCCC1=O
    ·, ·, 3%, ·, -9, -2.2%, ·
- Cc1cc(C)c2nc(Cl)c(CN(Cc3ccco3)C(=O)Nc3ccccc3C)cc2c1
    3%, 20%, -2%, 1.3, -10, -14%, 6
- CC(C)CN(Cc1c(O)ccc2c3c(c(=O)oc12)CCC3)CC(C)C
    0%, 12%, 0%, 3.0, 5, 13µM*, 21
- O=C(c1ccc(Br)o1)N1CCN(Cc2ccc3c(c2)OCO3)CC1
    -8%, 7%, 14%, 0.4, -14, -3.3%, -20
- O=C(CNS(=O)(=O)c1ccccc1)N1CCc2ccccc2C1
    0%, 0%, 3%[15.4 µM], 0.3, -8, -1.8%, -14
- Cn1cnnc1SCc1cccc(Br)c1
    1%, -7%, -17%, 1.6, -5, -2.2%, -6
- Cc1ccc(S(=O)(=O)N2CCN(C(=O)C3COc4ccccc4O3)CC2)cc1C (stereo unspecified)
    -5%, 3%, 5%, -5.7, 2, -3.7%, ?

# Additional structures follow:
# The line under a structure holds: gsp antag, Sfp PPTase inh, gsp agonist, Menin MLL FP FL, D2 potentiator, ClpP mod, TRPV1 potentiator
- Cn1c(=O)c2c(nc(Sc3ncnn3CC(=O)NC(C)(C)C)n2C)n(C)c1=O
    6%, 17%, ?, -1.9, -1, ·, 2
- CCOC(=O)c1oc2ccccc2c1NC(=O)C(C)(C)C
    9%, 5%, ?, 0.5, -3, ·, 8
- CC(=O)Nc1nnc(SCC(=O)NCc2ccc3c(c2)OCO3)s1
    4%, 14%, 0%, ·, -21, -1.5%, 13
- O=C(Cc1ccccc1F)N1CCN(S(=O)(=O)c2ccc(Cl)cc2)CC1
    -10%, ·, -61%[inhibitor], ·, 0, 0.6%, -16
- O=C(O)c1ccccc1C(=O)Nc1c(-c2ccccc2)nc2ccccn12
    1%, 8%, 1%, -0.1, -5, -12%, 3
- O=C1NC(Cc2ccc(O)cc2)c2nc3cc(Cl)ccc3c(=O)n2-c2cc(Cl)ccc21 (stereo unspecified)
    -18%, ·, ·, ·, 1, -4.2%, ·
- COc1ccc(-c2cnnn2-c2ccc(N)cc2)cc1OC
    2%, 15%, -3%, 2.8, -5, -3.5%, -7
- CC(=O)Nc1ccc2c(c1)OCCOCCOc1cc(NC(C)=O)ccc1OCCO2
    3%, 11%, 30%[15.4 µM], 0.5, 10, ·, 10
- CC(C(=O)Nc1cccnc1)N1C(=O)c2ccccc2C1=O (stereo unspecified)
    -1%, 13%, ?, 0.2, -7, -0.3%, 7
- COc1ccc(S(=O)(=O)NCC(c2cccnc2)N2CCN(C)CC2)cc1C (stereo unspecified)
    6%, 12%, 0%, 4.4, -6, 0.6%, 11
- COc1ccc(CCN(C)CC(O)COC(c2ccc(F)cc2)c2ccc(F)cc2)cc1OC (stereo unspecified)
    13%, -2%, -1%, -0.4, -35, 0.9%, -4
- O=C(NCCc1ccccc1)c1ccc2c(c1)N(Cc1ccccc1)CCS2
    -14%, 5%, ?, ·, 1, 4.0%, 13
- N#CCCN(Cc1ccccc1)C(=S)Nc1ccccc1
    -11%, 6%, 15%, 3.3, -17, 1.8%, 2
- COC(=O)c1ccc(C(=O)NC(=S)Nc2ccc3nc(SC)sc3c2)cc1
    6%, 2%, 2%, 6.7, -16, -8.6%, -2

# Bioassay records as filed in PubChem.
